Bioassay records (PubChem BioAssay)
Cruzain Triton = blocks cruzain activity in presence of Triton detergent. P25779. purified cruzain, Z-FR-AMC fluorescence, 0.01% Triton. Potency, µM, for inactives: max response, negative = inhibition, most hits filed as inhibitors. actives 0.43% (n = 200,000);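 further: plate controls were neutral wells for no effect and buffer without enzyme for full effect; nearly all actives have a fitted effect of over 40% in size; top concentration of the series not given in the record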
Target sequence (P25779 123-467 limits assumed): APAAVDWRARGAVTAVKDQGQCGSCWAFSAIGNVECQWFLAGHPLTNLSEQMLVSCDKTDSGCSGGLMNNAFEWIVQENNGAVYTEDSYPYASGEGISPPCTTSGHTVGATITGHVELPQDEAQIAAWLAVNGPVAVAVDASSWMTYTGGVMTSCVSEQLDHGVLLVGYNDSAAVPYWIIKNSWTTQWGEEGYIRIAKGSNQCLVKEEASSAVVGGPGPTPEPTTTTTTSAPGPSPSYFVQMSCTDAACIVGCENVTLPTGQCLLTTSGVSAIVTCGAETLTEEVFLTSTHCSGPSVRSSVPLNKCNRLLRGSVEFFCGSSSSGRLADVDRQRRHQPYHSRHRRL
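Cysteine protease activity tested under reducing, mildly acidic conditions (100 mM sodium acetate pH 5.5, 5 mM DTT) plus 0.01% Triton X-100. Cruzain 1.5 nM; substrate Z-FR-AMC 2 uM; 15 min compound preincubation at room temperature.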
Marburg entry inh = blocks Marburg virus binding to or entry into cells. AID 540276. actives 1.8% (n = 300,000). Marburg virus pseudotyped entry inhibition, cell reporter; control for the full effect not named in the record; about a third of the inactives were read at about 46 µM. Potency, µM (titrated, usually from 37.8 µM), for inactives: at the top dose activity change, negative = inhibition, usual class: inhibitors; active = well fitted inhibition curve with a large enough effect; inconclusive = small, poorly fitted or top-dose-only effect, or effect the other way; inactive = flat fitted curve, though single readings scatter; tested in HEK293 cells; about a fifth of its hits are not listed in these tables; further: on the % scale 0 is the no-effect control and ±100 the full control effect; luciferase read-out
Cruzain inh noDet = cruzain (T. cruzi) inhibition without detergent; P25779; purified cruzain, Z-FR-AMC fluorescence, no detergent; Potency, µM, for inactives: max response, negative = inhibition, most hits filed as inhibitors; actives 2.3% (n = 200,000);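 further: plate controls were enzyme without inhibitor for no effect and buffer without enzyme for full effect; nearly all actives have a fitted effect of over 40% in size; top concentration of the series not given in the record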
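Detergent-free condition (0.00005% Triton X-100) in acetate buffer pH 5.5 with DTT. 1.5 nM enzyme and compound were pre-mixed 15 min, then 2 uM Z-FR-AMC substrate added; reaction progress from fluorescence change between first and third reads (60 s).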
RE007 growth inh = less growth of the S. pombe RE007 Vpr strain. S. pombe RE007 Vpr strain, BacTiter-Glo ATP luminescence, 24 h; control for the full effect not named in the record. Potency, µM (highest dose often 92.2 µM), for inactives: top-dose activity change, negative = less growth. actives 0.21% (n = 360,000). AID 651644; active = well fitted falling curve with a large enough effect; inconclusive = small, poorly fitted or top-dose-only effect; inactive = no such curve, though single readings can be large or run the other way;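 further: on the % scale 0 is the no-effect control and ±100 the full control effect; nearly all actives have a fitted effect of over 50% in size; the assay follows cell death caused by Vpr and the record does not say whether a fall means rescue or toxicity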
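Fission yeast strain RE007, carrying one chromosomally integrated HIV-1 vpr copy, was seeded at OD 0.01 in PMG+AL medium with 23 nL pinned compound. After 24 h at 30 °C and 99% humidity, viability was read by BacTiter-Glo luminescence.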
SARS PLP yeast = inhibitors of SARS-CoV papain-like protease in yeast. actives 0.19% (n = 330,000). AID 485353. Potency, µM (top dose mostly 32.9 µM), for the others: at the highest dose activity, positive = growth rescue. S. cerevisiae expressing SARS-CoV PLpro, growth rescue; control for the full effect not named in the record; active means well fitted rising curve with a large enough effect; inconclusive means small, poorly fitted or top-dose-only effect; inactive means no such curve, though single readings can be large or run the other way; further: 0% is about no effect; nearly all actives have a fitted effect of over 55% in size; growth read by luminescence after 48 h
NS1 function inh = blocks influenza NS1 protein function; S. cerevisiae slowed by influenza A NS1, growth recovery by OD600; Potency, µM (series often up to 46.1 µM), for inactives: at the top dose activity, positive = more growth; actives 0.4% (n = 270,000); AID 2326; active means well fitted rising curve with a large enough effect; inconclusive means small, poorly fitted or top-dose-only effect; inactive means no such curve, though single readings can be large or run the other way; further: nearly all actives have a fitted effect of over 50% in size
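A cell-based growth assay was used: compounds that relieve NS1-induced slow growth of budding yeast raise OD600. Assay medium was yeast nitrogen base with ammonium sulphate and -URA supplement, pH 6.0, with 2% galactose.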
LASV entry inh = Lassa virus entry inhibition; Lassa virus pseudotype entry inhibition, cell reporter; control for the full effect not named in the record; Potency, µM (series often up to 37.9 µM), for the others: at the highest dose activity change, negative = inhibition, actives largely listed as inhibitors; actives 1.2% (n = 300,000); active means well fitted inhibition curve with a large enough effect; inconclusive means small, poorly fitted or top-dose-only effect, or effect the other way; inactive means flat fitted curve, though single readings scatter; tested in HEK293 cells; further: on the % scale 0 is the no-effect control and ±100 the full control effect; nearly all actives have a fitted effect of over 50% in size; luciferase read-out
StopGo reporter = lowers the luciferase signal of an FMDV 2A StopGo reporter; human cells with a luciferase reporter of 2A StopGo recoding; control for the full effect not named in the record; Potency, µM (titrated, usually from 57.9 µM), for inactives: at the highest dose signal change, negative = less light; actives 1.2% (n = 410,000); active = well fitted falling curve with a large enough effect; inconclusive = small, poorly fitted or top-dose-only effect; inactive = no such curve, though single readings can be large or run the other way; tested in HEK293T cells; further: on the % scale 0 is the no-effect control and ±100 the full control effect; nearly all actives have a fitted effect of over 45% in size; luciferase light after 4 h
* hit, by the source's call; ? = inconclusive; . = no result given; & = joins results of further samples; [ ] = another dose, or the depositor's remark. Unless noted, the call rests on the fitted dose curve; in most records, active means well fitted curve in the direction sought with a large enough effect; inconclusive means small, poorly fitted or top-dose-only effect, or another doubt; inactive means no such curve, though single readings can be large; an effect the other way counts as inactive or inconclusive. Potency means the concentration at half of the fitted maximal effect. Random draw from the library; overall some 4.8% were active at least once.

| SMILES | Cruzain Triton | Marburg entry inh | Cruzain inh noDet | RE007 growth inh | SARS PLP yeast | NS1 function inh | LASV entry inh | StopGo reporter |
| --- | --- | --- | --- | --- | --- | --- | --- | --- |
| O=C1NC(c2ccccc2)=C(c2nc3ccccc3s2)C(c2ccccc2)N1 (stereo not given) | -3.7% | -21.3% | ? | -0.3% | -0.3% | 22.4% | 9.2µM* | ? |
| CC(C)c1nc2n[nH]c(N)c2c2c1CSC(C)(C)C2 | 1.2% | ? | ? | -7.2% | 10.5% | 5.62µM* | -8.0% | ? |
| Cc1ccc(S(=O)(=O)NC(=O)Nc2ccccc2F)cc1 | -2.5% | 9.0% | 3.8% | -1.3% | 17.4% | 13.6% | 7.2% | -1.3% |
| COc1cc2c(cc1OC)-c1cc(N3CCCc4ccccc43)nc(=O)n1CC2 | -10.1% | -14.1% | 20.5% | 1.1% | -9.4% | -35.7% | -18.6% | . |
| Cc1cc(-c2n[nH]c(=S)n2Cc2ccco2)n(C)n1 | 2.5% | ? | 0.7% | -4.7% | -11.4% | 2.4% | 4.5% | 0.1% |
| Cc1c(C(=O)O)sc(S(=O)(=O)N2CCN(C(=O)Cc3ccccc3Cl)CC2)c1C(=O)O | . | ? | . | -7.4% | 7.0% | . | 16.5% | -15.2% |
| CC(C)Cn1c(=O)c2ccccc2n2c(CCC(=O)N3CCN(c4cccc(Cl)c4)CC3)nnc12 | -0.9% | ? | 0.2% | . | . | . | . | ? |
| O=C(Nc1ccccc1)N1CCC(C(=O)N2CCCC(C(F)(F)F)C2)CC1 (stereo not given) | . | 4.9% | . | 21.6% | 0.3% | -8.7% | 0.8% | 6.8% |
| CCOC(=O)CC(NC(=O)c1ccc(C)cc1)c1ccc(C)cc1 (stereo not given) | 5.4% | -3.0% | -4.6% | -3.8% | 6.9% | -5.4% | -2.6% | 11.6% |
| CCN(C(=S)Nc1ccc(C(C)=O)cc1)C1CCCCC1 | . | 4.5%[46.1 µM] | . | 5.3% | 0.3% | . | 11.6% | 71.2%[activator] |
| CCCCNC(=O)CCn1c(=O)c2ccccc2n(Cc2cc(C)ccc2C)c1=O | 0.4%&-1.1% | 7.4% | 4.9%&-0.4% | 7.2% | 12.4% | -3.4% | -12.6%[46.1 µM] | -29.3%&-22.3% |
| Cc1ccc(-n2nc(C(=O)NCc3ccco3)c3c4ccccc4n(C)c3c2=O)cc1 | -9.0% | ? | ? | -10.8% | -4.1% | -1.4% | -16.6% | 0.0% |
| CN(CC(=O)Nc1ccc(F)cc1)c1ccc(S(=O)(=O)N2CCCC2)cn1 | . | -4.8% | . | -16.1% | 0.2% | . | 0.2% | -19.5% |
| CC(C)(C)C1CCC(OCC(O)CN2CCCC2)CC1 (stereo not given) | . | . | . | 2.5% | 0.4% | ? | . | -14.7% |
| CSc1nnc(Cn2c(=O)sc3ccccc32)n1-c1ccccc1 | -0.4% | . | -5.8% | 1.8% | -1.5% | -19.9% | . | -12.2% |
| O=C(N/N=C/c1ccc(O)c(O)c1)c1ccc(CSc2cccc3cccnc23)cc1 | -9.2% | -5.3% | 12.4% | 2.7% | 1.8% | 14.6% | -11.1% | -9.9% |
| O=C1C(Cc2ccc(O)cc2)NC(=S)N1Cc1ccccc1 (stereo not given) | . | . | . | 4.6% | 0.8% | 2.8% | . | -26.8% |
| CCSc1nc(=O)n(-c2ccccc2)c(C)c1C(C)=S | -5.5% | 13.6% | -4.4% | 15.6% | 19.4% | -2.0% | 5.3% | -6.1% |
| Cc1ccc(C2C(C(=O)O)c3ccccc3C(=O)N2C)c(C)c1 (stereo not given) | -1.1% | -18.3% | -5.0% | 3.4% | ? | -3.2% | 1.6% | -10.7% |
| CC1=C(C(N)=O)C(c2ccccc2)n2nc(-c3cccc(C)c3)nc2N1 (stereo not given) | 0.7% | . | -4.6% | 5.4% | -2.0% | -5.8% | . | -16.2% |
| Oc1c(C=Nc2cccc3nsnc23)ccc2ccccc12 | -0.7% | ? | -6.1% | -24.1% | -9.0% | 7.0% | 12.8% | 24.1% |
| Cc1ccc(C)c(NC(=O)CN2C(=O)NC(CCc3ccccc3)C2=O)c1 (stereo not given) | . | ? | . | 8.9% | -12.6% | . | 2.2%[46.1 µM] | 17.7% |
| CCS(=O)(=O)N1CCC(C(=O)N2CCN(Cc3ccccc3)CC2)CC1 | . | -1.5%[46.1 µM] | . | 5.5% | -0.9% | 1.3% | -0.1% | -10.4% |
| O=C(O)CCCN1C(=O)/C(=C/C=C/c2ccco2)SC1=S | . | ? | . | -5.3% | -0.2% | 5.2% | -9.0% | ? |
| COc1ccc(CC(=O)OCC(=O)NC2CCCC(C)C2C)cc1 (stereo not given) | . | -8.1%[46.1 µM] | . | -9.9% | -3.5% | . | -5.6%[46.1 µM] | 3.6% |
| CCOC(=O)CSC1=C(C#N)C(c2ccccc2OCC)C(C#N)C(=O)N1 (stereo not given) | 2.1% | ? | -8.0% | -1.9% | 6.1% | 4.1% | -3.5% | . |
| O=C(N/C=N/OCc1ccc(Cl)cc1Cl)NOCc1c(Cl)cccc1Cl | -4.5% | ? | -3.1% | 1.0% | . | 10.0% | -11.6% | ? |
| O=C1C2C3CCC(O3)C2C(=O)N1c1cccc(O)c1 (stereo not given) | . | . | . | -5.8% | 4.2% | 1.0% | . | -17.2% |
| Cc1cccc(NC(=O)C(C)OC(=O)c2ccccc2NS(=O)(=O)c2cc(C)c(C)c([N+](=O)[O-])c2)c1 (stereo not given) | -3.2% | ? | ? | -14.6% | -4.7% | ? | ? | ? |
| COC(=O)C1=NN(C(=O)c2ccc(Br)cc2)C(O)(C(C)(C)C)C1 (stereo not given) | . | 16.0%[46.1 µM] | . | -7.4% | -2.3% | . | -1.1% | -8.0% |

Full records, quoted from the list. Order of values: Cruzain Triton	Marburg entry inh	Cruzain inh noDet	RE007 growth inh	SARS PLP yeast	NS1 function inh	LASV entry inh	StopGo reporter
O=C1C2C3CCC(O3)C2C(=O)N1c1cccc(O)c1 (stereo not given) is entered as .	.	.	-5.8%	4.2%	1.0%	.	-17.2%
CC(C)c1nc2n[nH]c(N)c2c2c1CSC(C)(C)C2 is entered as 1.2%	?	?	-7.2%	10.5%	5.62µM*	-8.0%	?
O=C(N/N=C/c1ccc(O)c(O)c1)c1ccc(CSc2cccc3cccnc23)cc1 is entered as -9.2%	-5.3%	12.4%	2.7%	1.8%	14.6%	-11.1%	-9.9%
CSc1nnc(Cn2c(=O)sc3ccccc32)n1-c1ccccc1 is entered as -0.4%	.	-5.8%	1.8%	-1.5%	-19.9%	.	-12.2%

The results go on:
| SMILES | Cruzain Triton | Marburg entry inh | Cruzain inh noDet | RE007 growth inh | SARS PLP yeast | NS1 function inh | LASV entry inh | StopGo reporter |
| --- | --- | --- | --- | --- | --- | --- | --- | --- |
| CC1CCN(C(=O)c2ccc3c(c2)NC(=O)CN3)CC1 | . | -5.2%[46.1 µM] | . | -16.6% | 0.4% | 7.5% | 2.9%[46.1 µM] | 19.3% |
| Cc1ccnc(NS(=O)(=O)c2ccc(NC(=O)c3oc4ccccc4c3C)cc2)n1 | . | 1.6% | . | 31.7% | 0.1% | 7.7% | 3.1% | 16.5% |
| Nc1nc(SCC(=O)Nc2ncc(Cl)cc2Cl)n[nH]1 | . | -13.2% | . | -0.6% | -1.3% | . | 5.9% | -10.3% |
| Cc1nn(C)cc1/C=C1\CCC/C(=C\c2cn(C)nc2C)C1=O | -15.3% | -8.6% | 18.4% | 18.1% | -4.5% | -51.0% | -20.2% | -14.3% |
| Cc1cc(=O)[nH]c2[nH][nH]c(=O)c12 | . | 26.8% | . | -14.4% | . | . | ? | -16.9% |
| CCn1c(-c2ccc(S(=O)(=O)N3CCOCC3)cc2)csc1=Nc1ccc(C)c(Cl)c1 | -0.3% | . | -7.0% | . | 6.1% | . | ? | ? |
| COc1ccc(C(=O)Nc2ccc(O)cc2C(=O)O)cc1 | . | ? | . | 53.4% | 0.5% | 3.0% | ? | -16.9% |
| Cc1ncc(CO)c2c1Oc1nc(-c3ccccc3)nc(SCC(=O)N3CCOCC3)c1C2 | . | ? | . | 11.8% | 2.8% | 13.6% | ? | -19.3% |
| NC(=O)C(c1ccccn1)c1ncc(C(F)(F)F)cc1Cl (stereo not given) | . | 11.3%[46.1 µM] | . | 26.0% | 0.1% | -1.2% | 3.2%[46.1 µM] | -11.6% |
| COc1ccc2c(-c3ccccc3)cc3nnnn3c2c1 | -1.7% | 4.4% | 1.8% | -4.3% | -5.2% | -86.7% | -16.5% | . |
| O=C(C1Cc2ccccc2CN1S(=O)(=O)c1ccc(F)cc1)N1CCCCCC1 (stereo not given) | -3.0% | -8.7% | -4.5% | -7.7% | -5.6% | -5.3% | -20.0% | 28.1% |
| COc1ccc(C(=O)NCc2cccnc2)cc1S(=O)(=O)N1CCCc2ccccc21 | . | ? | . | 5.9% | -0.6% | -1.3% | -26.9% | -4.8% |
| COc1ccccc1NS(=O)(=O)c1cn(C)cn1 | . | . | . | -9.6% | -4.0% | -9.4% | . | -6.1% |
| Fc1ccc(/C=N/n2c(C3CCCCC3)n[nH]c2=S)cc1 | . | . | . | 9.9% | -1.2% | 0.1% | . | -26.2% |
| COc1ccc(-c2noc(N3CCC(C(=O)Nc4ccc(F)cc4)CC3)n2)cc1 | . | . | . | -2.9% | -2.0% | 7.4% | . | -22.1% |
| COc1ccccc1C1C2=C(CCCC2=O)N(CC(=O)O)C2=C1C(=O)CCC2 | . | -1.1%[46.1 µM] | . | 10.4% | 4.9% | -6.7% | ? | -4.5% |
| O=C(N1CCN(CCO)CC1)N1c2ccccc2C=Cc2ccccc21 | -3.3% | ? | -3.5% | 3.7% | 4.3% | 8.0% | 1.5% | 1.7% |
| Cc1oc(S(=O)(=O)N2CCCCC2)cc1NC(=O)Nc1ccc(F)cc1 | . | . | . | -0.4% | -0.5% | -1.5% | . | 6.1% |
| S=c1nc[nH]c2c1ncn2-c1ccccc1 | . | 25.3%[46.1 µM] | . | 21.4% | . | . | 13.4%[46.1 µM] | 7.2% |
